# From PubChem BioAssay
# miR-21 FLuc – miR-21 reporter, rising signal. AID 2288. 340,000 tested, under 10 active. HeLa miR-21 FLuc reporter, luciferase, 48 h. Potency, µM (titrated, usually from 38.3 µM), inactives show top-dose reporter change, positive = more light; active = well fitted rising curve with a large enough effect; inconclusive = small, poorly fitted or top-dose-only effect; inactive = no such curve, though single readings can be large or run the other way;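 further: % of control where 0% means no effect; miR-21 action dims this reporter so a rising signal means less miR-21 action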
#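 Using DMEM plus 10% FBS, HeLa miR-21-FLuc cells are incubated with test compounds (final up to about 40uM) for 48 hours; firefly luciferase signal is then imaged following reagent-mediated lysis.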
# Rango complex inh – prevents formation of the Rango-importin beta complex. Q14974. Rango CFP/YFP FRET sensor + importin beta, 45 min. Potency, µM (highest dose often 92.2 µM), inactives show at the top dose inhibition of complex formation. 340,000 tested, 0.031% active. AID 540263; active = rising FRET ratio curve, often small or poorly fitted; inconclusive = mostly compound fluorescence or quenching in the first reads; inactive = flat curves in all reads;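 further: potency means the concentration at half of the fitted maximal effect; 0% = DMSO wells and 100% = buffer wells lacking importin beta; nearly all actives have a fitted effect of over 15% in size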
#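 FRET biosensor (snurportin 1 IBB flanked by EYFP and cerulean), 50 nM, with compound 5 min, then 0.125 microM importin beta in PBS, 1 mM DTT, 0.02% Tween-20, 0.1% BSA. CFP/YFP ratio read after 45 min at room temperature; pre-read flags interference.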
# Rango dissoc inh – inhibitors of RanGTP-induced Rango-importin beta complex dissociation. Biochemical FRET Rango-importin beta, RanGTP-induced dissociation. Potency, µM (highest dose often 46.1 µM), without a hit: top-dose activity change, negative = inhibition. 340,000 tested, 0.071% active. AID 540253; active means falling FRET ratio curve, often poorly fitted, with flat reads before Ran was added; inconclusive means other falling curves, or compound fluorescence or quenching; inactive means flat or rising ratio curve;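 further: potency means the concentration at half of the fitted maximal effect; % of control where 0% means no effect; nearly all actives have a fitted effect of over 45% in size; -100% = wells without RanGTP and RCC1; the record marks most hits as doubtful in a second field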
#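 Rango/importin beta premix (0.1/0.25 uM final), PBS + 1 mM DTT + 0.02% Tween-20 + 0.1% BSA; cpd 5 min RT; FRET pre-read; + RanGTP-RCC1 (0.6 uM Ran, 2 mM GTP, 0.2 uM RCC1); 45 min RT; FRET post-read, ex 430, em 486/530 nm.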
# GLA inh pH 4.5 – alpha-galactosidase A (human) inhibition, pH 4.5 | 230,000 tested, under 10 active | P06280 | activity change, negative = inhibition, % at 105 µM | purified enzyme, 4-MU-alpha-Gal fluorescence, pH 4.5; inconclusive = small, poorly fitted or top-dose-only inhibition, or a rising curve; inactive = flat fitted curve, though single readings scatter; no compound was filed as active;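 further: 0% = full activity with enzyme and -100% = basal without enzyme; dose as in the result columns while the protocol names 77 µM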
# Target sequence (P06280 whole entry, looked up): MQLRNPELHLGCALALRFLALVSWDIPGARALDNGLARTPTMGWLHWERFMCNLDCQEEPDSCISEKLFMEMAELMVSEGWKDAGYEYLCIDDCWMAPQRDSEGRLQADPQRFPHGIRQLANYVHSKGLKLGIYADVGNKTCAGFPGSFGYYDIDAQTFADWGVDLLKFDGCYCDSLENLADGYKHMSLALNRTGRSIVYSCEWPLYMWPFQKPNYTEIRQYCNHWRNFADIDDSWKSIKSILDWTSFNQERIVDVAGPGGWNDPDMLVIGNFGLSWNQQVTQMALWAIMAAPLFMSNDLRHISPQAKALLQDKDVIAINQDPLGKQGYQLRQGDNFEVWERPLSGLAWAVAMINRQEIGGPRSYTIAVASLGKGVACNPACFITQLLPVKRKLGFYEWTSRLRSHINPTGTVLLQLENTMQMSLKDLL
# Active calls of the source: *; ? = inconclusive; · = not tested or not shown; & = joins results of further samples.
SMILES,miR-21 FLuc,Rango complex inh,Rango dissoc inh,GLA inh pH 4.5
CCOc1ccc(Br)cc1C(=O)Nc1ccc(C(=O)NCC(C)C)cc1,-2.7%,4.0%,2.2%,4.6
COc1ccccc1C(NC(C)=O)c1cc(Cl)c2cccnc2c1O (stereo not given),0.9%,2.9%,35.5%,·
COc1ccc(Cc2nnc(N)s2)cc1OC,-6.2%,-0.6%,-2.0%,-11.4
Cc1ccccc1NC(=O)CN1C(=O)N/C(=C\c2cccn2-c2cccc(C(=O)O)c2)C1=O,-0.8%,-5.5%,-17.5%,6.1
COC(=O)c1c(NC(=O)CSc2nnnn2C)sc(C)c1C,-1.0%,6.4%,-3.0%,0.5
O=C(CN1C(=O)C(=O)N(Cc2ccccc2)C1=O)c1ccc[nH]1,·,0.0%,0.3%,·
CSc1nnc(NC(=O)c2cc3ccccc3oc2=O)s1,-13.3%,-2.2%,-3.3%,-0.6
NC(=O)C(c1ncc(C(F)(F)F)cc1Cl)c1c(Cl)cccc1Cl (stereo not given),2.2%,3.7%,-7.2%,-7.7
Cc1ccc(S(=O)(=O)c2nc(Cc3ccccc3)oc2N2CCOCC2)cc1,·,0.0%,15.1%,·
O=C(O)CCCNS(=O)(=O)c1ccc(Br)s1,-4.9%,-3.5%,-8.1%,-7.2
COCCNC(=O)Cn1nc(C)c([N+](=O)[O-])c1C,-0.8%,-0.5%,-10.2%,7.0
N/C(=N\OC(=O)c1ccccc1F)c1ccc([N+](=O)[O-])cc1,-34.8%,3.6%,0.1%,·
CN(C)N1C(=O)c2c(Cl)c(Cl)c(Cl)c(Cl)c2C1=O,·,-0.1%,6.4%,·
CN(C)N1C(N)=C(C#N)C(c2cccnc2)C2=C1CC(C)(C)CC2=O (stereo not given),0.0%,1.9%,-14.6%,11.7
COc1cc(CCN2C(=O)c3cccc4cccc(c34)C2=O)c(S(=O)(=O)N2CCC(C)CC2)cc1OC,-10.8%,0.1%,-8.8%,-8.6
Cc1ccc2cc(C#N)c(SCC(=O)NNC(=O)Cc3ccccc3)nc2c1,-1.1%,-3.3%,15.4%,-4.0
O=C(Nc1ccc(Cl)c(Cl)c1)C1CCN(C(=O)c2ccco2)CC1,·,5.2%,0.5%,·
CC(OC(=O)c1cccs1)C(=O)NC1CCCCC1C (stereo not given),·,-1.4%,0.6%,·
CC(C)COP(=O)(OCC(C)C)C(Nc1ccccc1)c1ccccc1 (stereo not given),19.0%,4.1%,10.7%,-6.5
O=C(CCC1CCCC1)NNC(=O)c1cc2ccccc2cc1O,-0.6%,?,18.4µM*,·
Cc1ccc(S(=O)(=O)NCCC(=O)OCC(=O)N(Cc2ccccc2)C(C)(C)C)cc1,·,-2.1%,12.5%,·
O=C(CCN1CCOCC1)Nc1ccc(F)cc1,-4.9%,4.9%,4.7%,·
Cc1cc2cc(C#N)c(N3CCOCC3)nc2cc1Cl,-2.6%,-2.3%,14.4%,·
CCc1ccccc1OCC(=O)Nc1cccc(S(=O)(=O)N2CCCC2)c1,·,5.8%,-1.1%,·
N#CC1(NC(=O)CN2C(=O)NC(Cc3c[nH]c4ccccc34)C2=O)CCCCC1 (stereo not given),·,0.5%,-4.9%,·
Cc1cc(C)n2c(nc3ccccc32)c1C(=O)NCc1ccccc1,0.3%,-2.6%,4.8%,8.4
Cc1nc2ccccc2nc1N/N=C/c1ccc(O)cc1,-63.3%,?,-24.6%,-15.3
Cc1cccc(NC(=O)CCOc2ccccc2)c1,-33.2%,-1.8%,2.2%,-2.9
Cn1cnc2c1c(=O)[nH]c(=O)n2C,2.3%,·,·,4.1&-12.3&3.8&0.3&2.3
Fc1cccc(Cl)c1CN1CCN(c2nc3ccccc3s2)CC1,-57.6%,-4.5%,13.5%,·
Cc1ccccc1C(=O)O/N=C(\N)c1ccccc1,-24.7%,-0.7%,-16.0%,·
COc1ccc(C)cc1S(=O)(=O)NC1CCCC1,-4.3%,2.5%,-10.6%,-6.9
Cc1cc2ccccn2c1C(=O)c1ccc([N+](=O)[O-])o1,28.7%,-0.4%,-1.2%,-3.5
O=c1ccccn1Cc1c(Cl)cccc1Cl,-20.2%,?,12.1%,-11.0
CCCC1CCc2c(sc(NC(=O)c3cccs3)c2C(N)=O)C1 (stereo not given),-18.4%,-1.6%,-12.2%,8.7
O=C(CCS(=O)(=O)CCN1CCOCC1)NCNC(=O)CCS(=O)(=O)CCN1CCOCC1,-0.1%,1.7%,6.0%,3.0
N=C(N)n1c(N)nc2ccccc2c1=O,-1.8%,-1.6%,-0.7%,1.9
Cc1nn(CC(=O)Nc2cccnc2)c(=O)c2ccccc12,-1.1%,2.1%,-13.6%,9.4
COc1ccccc1-c1nc(-c2ccncc2)no1,-43.9%,-2.5%,1.7%,0.6
CCC(C)Sc1cc(-c2nc3ccc(C)cn3c2NCc2ccccc2)ccc1OC (stereo not given),·,?,14.6µM*,·
COc1cc2c(cc1NC(=O)/C=C/c1ccc([N+](=O)[O-])cc1)oc1ccccc12,-5.3%,-2.5%,3.5%,1.6
O=C(NCc1ccco1)N1c2ccccc2Sc2ccccc21,-10.0%,3.0%,-5.0%,1.2
CSc1ccc(Cl)c(C(=O)NNC(=O)c2cccs2)c1,·,-0.2%,-13.3%,·
COc1ccc(C2CC(c3ccccc3OC(C)=O)=NN2C(=O)/C=C/c2ccccc2)cc1OC (stereo not given),6.8%,-3.1%,0.9%,-17.5
O=C(NCCCN1CCCCC1)C1CCN(c2ncnc3c2nc2n3CCCCC2)CC1,-3.1%,-1.2%,2.5%,·
Cc1ccccc1Nc1c(-c2ccccn2)nc2ccccn12,?,0.2%,10.0%,-3.0
O=C(NCc1ccccc1)NS(=O)(=O)c1ccccc1Cl,-4.9%,0.1%,-0.2%,1.4
O=C(CSC1=NCCS1)Nc1nc2ccccc2s1,-41.7%,?,-2.8%,5.3
Cc1[nH]c2ccccc2c1C(=O)/C=C/c1ccccc1,-24.3%,?,-14.6%,3.8
COCCN(C(=O)c1snc(C(N)=O)c1N)C(C(=O)NC1CCCC1)c1cc(OC)c(OC)c(OC)c1 (stereo not given),1.3%,-1.3%,-14.1%,·

# One compound at a time, from the list above. Values in the order: miR-21 FLuc, Rango complex inh, Rango dissoc inh, GLA inh pH 4.5
# `O=C(CSC1=NCCS1)Nc1nc2ccccc2s1` as listed: -41.7%, ?, -2.8%, 5.3
# `COc1ccc(C2CC(c3ccccc3OC(C)=O)=NN2C(=O)/C=C/c2ccccc2)cc1OC` (stereo not given) as listed: 6.8%, -3.1%, 0.9%, -17.5

# The listing continues.
SMILES,miR-21 FLuc,Rango complex inh,Rango dissoc inh,GLA inh pH 4.5
C=CCN1C=C2C(=O)C(C)(OC(=O)c3cccs3)C(=O)C=C2C=C1CCCC(=O)OC (stereo not given),8.6%,?,-9.9%,9.5&-6.4
COc1ccc(S(=O)(=O)Nc2ccc3c(c2)C(=O)N([C@H](C)CO)C[C@H](C)[C@@H](CN(C)S(=O)(=O)c2ccc(OC)cc2)O3)cc1,·,-4.0%,26.3%,·
CC1CCCC(C)N1CCCNC(=O)Cn1ncc2c3ccccc3n(C)c2c1=O (stereo not given),-3.3%,-7.0%,-8.6%,·
C=CCOc1ccc(/C=C/C(=O)Nc2ccc(C(=O)NC)cc2)cc1,-31.9%,0.7%,0.3%,-1.6
CCCCN1CC(C)(C)Oc2cccc(F)c2S1(=O)=O,·,2.2%,-22.9%,·
Cc1cc(C(=O)Nc2c(C)nn(Cc3ccccc3)c2C)on1,-0.1%,2.7%,13.8%,-1.7
CN(CCC1CCOCC1)C(=O)CC1C(=O)NCCN1Cc1cccc(F)c1 (stereo not given),-3.1%,-1.2%,-0.5%,·
O=C(NCC1CCCN1S(=O)(=O)c1cccs1)c1ccc(F)cc1 (stereo not given),·,0.1%,-14.7%,·
CCOC(=O)C1=C(COC(=O)/C=C/c2ccc(OC)c(OC)c2)NC(=O)NC1C (stereo not given),·,?,8.8%,·
COc1ccc(C2c3[nH]c4ccccc4c3C[C@H]3C(=O)N(CC(C)C)CC(=O)N23)c(OC)c1 (stereo not given in full),0.0%,-4.1%,-6.3%,·
CS(=O)(=O)N(CC(=O)N1CCN(Cc2ccccc2)CC1)c1cccc(F)c1,-0.5%,0.9%,-2.1%,·
c1ccc(CC(Nc2ccccn2)c2ccccc2)cc1 (stereo not given),-2.0%,6.2%,-9.4%,-4.0
Clc1cccc(Cc2nn[nH]n2)c1,-2.2%,-2.5%,-2.3%,-4.8
Cn1c(-c2ccccc2)cnc1NCc1cc2c(cc1[N+](=O)[O-])OCO2,-23.5%,-0.2%,14.7%,-11.3
Nc1nc(Nc2ccccc2Br)nc(C(F)(F)F)n1,-56.6%,-2.5%,-15.5%,-8.3
CCOc1ccc(OCc2cccc(C(=O)N(CC)CC)c2)cc1,-40.1%,-0.8%,4.8%,3.1
CCOc1ccc(NC(=O)Nc2cc(C)on2)cc1,-50.0%,0.5%,-4.7%,-1.2
CCCCOC(=O)CSC1=C(C#N)C(c2ccccc2OCC)C(C#N)C(=O)N1 (stereo not given),-11.7%,0.7%,-23.6%,12.4
CCc1cc(C(=O)Cc2nc3ccccc3[nH]2)c(O)cc1O,-6.1%,?,-8.7%,-5.0
COC(=O)c1ccccc1COn1c(=O)c[n+]([O-])c2ccccc21,-0.3%,?,9.1%,1.0
CCCCSc1nnc(CSc2ncccn2)n1C,-10.0%,-1.1%,14.3%,?
O=C(COc1coc(CN2CCCc3ccccc32)cc1=O)Nc1ccccc1,·,-1.3%,-3.5%,·
COC(=O)c1cnc[nH]1,0.1%,0.8%,-1.7%,·
COc1ccc(CNS(=O)(=O)c2ccc3oc(C(=O)O)c(C)c3c2)cc1,-2.0%,6.2%,2.3%,-3.5
O=C(NCc1cccs1)C1CCCN(C(=O)Nc2ccc(F)cc2)C1 (stereo not given),13.1%,-0.6%,0.7%,·
Cc1cnc(C(=O)Nc2ccc(C(=O)N3CCCCC3)cc2)cn1,-7.3%,3.1%,14.9%,5.3
CSc1ccccc1NC(=O)C1CCCN(S(C)(=O)=O)C1 (stereo not given),-0.1%,-0.5%,0.3%,·
Cc1cc(N)ccc1-n1nc2ccccc2n1,·,-2.0%,7.5%,·
C=C1CCC[C@]2(C)C[C@H]3OC(=O)C(CN(Cc4ccc(OC)c(OC)c4)CC(C)O)[C@H]3CC12 (stereo not given in full),14.0%,0.7%,0.9%,·
CC(NC(=O)c1ccc(Br)o1)c1ccc(-n2ccnc2)cc1 (stereo not given),·,5.9%,0.4%,·
Cn1c(=O)c2c(nc(N3CCC(C(N)=O)CC3)n2CCSc2nc3ccccc3s2)n(C)c1=O,-5.4%,?,-3.7%,2.6
COC(=O)[C@]1(C)N[C@H](CN(C)C(=O)c2ccc(C(C)(C)C)cc2)[C@@H]2C(=O)N(Cc3ccccc3)C(=O)[C@@H]21,·,-5.4%,-1.4%,·
CC(C)/C=C/C(=O)N1CCC(N2CCC(C(=O)NCc3ccccn3)CC2)CC1,0.6%,0.0%,-1.9%,·
CC12CCC(C(=O)C1)C1(C)CCCC(=O)C21 (stereo not given),·,0.0%,10.2%,·
CC(=O)NCCc1ccc(C(=O)CSc2nnc(C3CC3)n2C2CC2)cc1,·,-0.5%,2.1%,·
CCOC(=O)Cc1csc(NC(=O)CSc2nc(-c3ccccc3)c(C#N)c(=O)[nH]2)n1,-0.7%,-0.3%,18.6%,-1.7
CCOc1ccc(-c2nnc(N3CCCCC3)c3ccccc23)cc1,0.6%,0.0%,1.6%,1.4
Cn1cc(C(=O)C(=O)NC2CCCCC2)c2ccccc21,-45.2%,5.2%,-6.3%,·
COc1cccc(N(C(=O)Cn2nnc(-c3ccc(F)cc3)n2)C(C(=O)NCC2CCCO2)c2ccc(Cl)cc2)c1 (stereo not given),0.0%,0.0%,3.3%,4.8
CCc1ccc(Nc2nc3ccccc3c(=O)s2)cc1,-11.0%,-0.6%,-0.6%,-3.9
CC(c1ccco1)N(C(=O)c1cccc(Br)c1)c1ccccn1 (stereo not given),-5.1%,-0.7%,4.6%,·
CC[C@]12c3[nH]c4ccccc4c3CCN1C(=O)C(CC(=O)NCCc1ccccn1)C[C@@H]2C(=O)N1CCN(C(=O)c2ccco2)CC1 (stereo not given in full),·,0.4%,-0.4%,·

# This is a subset. The share of hits here may be higher or lower than overall.
